Vaccinia stage: blocks a specific stage of Vaccinia orthopoxvirus infection, primary screen, cell-based, single point. Vaccinia-infected cells, mCherry/Venus stage reporter fluorescence; stronger effect = lower value; some inactives read as strong as hits. activity change (mCherry), % (concentration not given with the values). 0.01% of 89,000 active. AID 1053133, 2014;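 active = mCherry past -33% and 40 or more points under the early reporter, replicates agreeing; inconclusive = past -33% without that gap or agreement; tested in A549 cells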;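 note: scaled between vehicle wells and reference inhibitor wells; 23 nL library stock went into each well; one replicate is shown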
Vaccinia stage Venus: second read-out of Vaccinia stage, no call of its own (marks repeat the call); activity change (Venus), %; measured here: Venus reporter, other viral stage;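 negative = less Venus signal; first of two replicates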
* hit, by the source's call; ? = inconclusive; . = no result given; & = joins results of further samples. Only part of the results is shown, so the mix of outcomes need not match the whole.

SMILES | Vaccinia stage | Vaccinia stage Venus
C[C@@H]1CCCCO[C@H](CN(C)C(=O)Nc2ccccc2)[C@@H](C)CN([C@H](C)CO)C(=O)c2cc(NS(=O)(=O)c3cn(C)cn3)ccc2O1 | 13 | 5
COc1ccc(NC(=O)Nc2ccc3c(c2)C(=O)N([C@H](C)CO)C[C@H](C)[C@@H](CN(C)C(=O)c2ccccc2)OCCCC[C@@H](C)O3)cc1 | 23 | 12
C[C@H](CO)N1C[C@H](C)[C@H](CN(C)C(=O)Nc2ccccc2)Oc2ncc(-c3ccccc3)cc2C1=O | -11&-14 | -12&-13
O=C(C1CC1)N1CC(=O)N2[C@@H](CO)[C@H](c3ccc(Br)cc3)[C@@H]2C1 | 9 | 9
CO[C@@H]1CN(C)C(=O)c2ccc(NS(=O)(=O)c3ccccc3)cc2OC[C@@H](C)NC[C@@H]1C | 8 | 6
CN1C(=O)c2cc(NC(=O)Nc3cccc(Cl)c3)ccc2OC[C@H]2O[C@H](CC(=O)NCCc3ccncc3)CC[C@@H]21 | 2 | 8
COc1ccccc1NC(=O)N[C@@H]1CC[C@H](CC(=O)NCc2ccc(Cl)c(Cl)c2)O[C@@H]1CO | -7 | -5
C[C@@H]1CCCCO[C@@H](CN(C)S(=O)(=O)c2cn(C)cn2)[C@@H](C)CN([C@H](C)CO)C(=O)c2cc(NS(=O)(=O)c3cn(C)cn3)ccc2O1 | 15 | 10
CO[C@@H]1CN(C)C(=O)c2ccc(NC(C)=O)cc2OC[C@@H](C)N(C(=O)c2ccccc2)C[C@@H]1C | 5 | 5
C[C@H]1CN([C@@H](C)CO)S(=O)(=O)c2ccc(C3=CCCCC3)cc2O[C@@H]1CN(C)S(C)(=O)=O | -33 | -27
C[C@@H]1CN([C@H](C)CO)C(=O)Cc2cc(NC(=O)Cc3ccccc3)ccc2O[C@H]1CN(C)S(=O)(=O)c1ccccc1 | 6 | -1
C[C@@H]1CN([C@@H](C)CO)C(=O)c2cc(NC(=O)Nc3cccc4ccccc34)ccc2O[C@H]1CN(C)Cc1ccc(C(=O)Nc2ccccc2N)cc1 | 38 | 14
N#Cc1ccc(-c2ccc([C@H]3[C@H](CO)N4C(=O)CN(C(=O)C5CCCCC5)C[C@@H]34)cc2)cc1 | 7 | 1
CC(C)NC(=O)NCC[C@H]1CC[C@@H](NS(=O)(=O)c2ccccc2)[C@@H](CO)O1 | 0 | -3
CCC(=O)N[C@H]1C=C[C@@H](CC(=O)NCc2ccccc2F)O[C@@H]1CO | -3 | 10
C[C@H]1CN([C@@H](C)CO)C(=O)c2cccc(NC(=O)Nc3ccccc3)c2O[C@@H]1CN(C)S(=O)(=O)c1ccc(F)cc1 | -13 | -5
C[C@H](CO)N1C[C@H](C)[C@H](CN(C)C(=O)Nc2ccc3c(c2)OCO3)Oc2ncc(-c3ccccc3)cc2C1=O | -18&-9 | -21&1
COc1ccc(CN(C)C[C@H]2Oc3ccc(NS(=O)(=O)c4ccc(C)cc4)cc3CC(=O)N([C@@H](C)CO)C[C@H]2C)cc1 | -27 | -25
CS(=O)(=O)Nc1ccc2c(c1)[C@H]1C[C@H](CC(=O)NC3CCCC3)O[C@H](CO)[C@H]1O2 | -6 | -7
CS(=O)(=O)N1C[C@@H](O)COC[C@H]2O[C@H](CC(=O)NCCc3ccncc3)CC[C@@H]21 | 6 | 10
O=C(C[C@@H]1CC[C@@H]2[C@H](COC[C@@H](O)CN2C(=O)Cc2ccccc2)O1)NC1CCCC1 | 3 | 8
CCC(=O)Nc1ccc2c(c1)OC[C@H](C)N(Cc1ccccc1F)C[C@@H](C)[C@@H](OC)CN(C)C2=O | -19 | -16
Cc1noc(C)c1NC(=O)Nc1ccc2c(c1)C(=O)N([C@@H](C)CO)C[C@@H](C)[C@H](CN(C)C(=O)Nc1ccc3c(c1)OCO3)OCCCC[C@@H](C)O2 | -1 | -4
CCCc1cn(CC[C@H]2CC[C@@H](NC(=O)Nc3ccccc3F)[C@@H](CO)O2)nn1 | -1 | -3
CCC(=O)N(C)C[C@@H]1Oc2cc(C#Cc3ccccc3)ccc2S(=O)(=O)N([C@H](C)CO)C[C@H]1C | ? | .

The results go on.
SMILES | Vaccinia stage | Vaccinia stage Venus
COC(=O)C[C@H]1CC[C@@H]2[C@@H](COc3ccc(NC(=O)c4ccc(F)c(F)c4)cc3C(=O)N2C)O1 | -9 | -12
COc1ccccc1NC(=O)N[C@H]1CC[C@H](CCNS(=O)(=O)c2ccc(F)cc2)O[C@@H]1CO | 7 | 2
CO[C@H]1CN(C)C(=O)c2ccc(NC(=O)c3ccccc3)cc2OC[C@H](C)N(C)C[C@@H]1C | 1 | -3
O=C(C[C@@H]1C[C@@H]2c3cc(NC(=O)NC4CCCCC4)ccc3O[C@@H]2[C@H](CO)O1)NCC(F)(F)F | 10 | 0
C[C@@H]1CN([C@H](C)CO)C(=O)c2cccc(NS(C)(=O)=O)c2O[C@@H]1CN(C)Cc1ccc2c(c1)OCO2 | 1 | -2
COc1ccc(S(=O)(=O)Nc2ccc3c(c2)C(=O)N([C@@H](C)CO)C[C@H](C)[C@H](CN(C)C(=O)NC2CCCCC2)OCCCC[C@@H](C)O3)cc1 | 7 | 3
CCC(=O)N1CC2(CCN(C(=O)NC(C)C)CC2)c2c(n(C)c3cc(OC)ccc23)[C@H]1CO | -4 | -10
CN1C(=O)c2cc(NC(=O)Nc3ccccc3F)ccc2OC[C@@H]2O[C@H](CC(=O)NCCc3ccncc3)CC[C@@H]21 | 10 | 9
C[C@H]1CN([C@@H](C)CO)C(=O)c2cccc(NC(=O)c3cnccn3)c2O[C@H]1CN(C)C(=O)Nc1ccc(F)cc1 | 9 | 6
CCS(=O)(=O)Nc1ccc2c(c1)C(=O)N(C)C[C@H](OC)[C@@H](C)CN(C(=O)c1ccc3c(c1)OCO3)[C@@H](C)CO2 | 15 | 18
COc1ccc(CN(C)C[C@H]2Oc3ccc(NC(=O)Nc4ccc(F)cc4)cc3CC(=O)N([C@H](C)CO)C[C@H]2C)cc1 | -22 | -15
C[C@H](CO)N1C[C@H](C)[C@H](CN(C)C(=O)Nc2ccccc2F)Oc2cc(-c3ccccc3)ccc2S1(=O)=O | -5 | -8
C/C=C/c1ccc2c(c1)O[C@@H](CN(C)C(=O)Cc1cccnc1)[C@@H](C)CN([C@H](C)CO)S2(=O)=O | -12 | -18
C[C@H]1CN([C@@H](C)CO)S(=O)(=O)c2ccc(-c3cccnc3)cc2O[C@@H]1CN(C)C(=O)C1CCCCC1 | 1 | 6
C[C@H](CO)N1C[C@H](C)[C@H](CN(C)Cc2ccc(C(=O)Nc3ccccc3N)cc2)Oc2ccc(NC(=O)Nc3ccc(F)cc3)cc2CC1=O | -3 | 1
COCC(=O)NC[C@@H]1[C@@H](c2ccc(-c3ccccc3)cc2)[C@@H](CO)N1C(C)=O | 9 | 8
C[C@@H]1CN([C@@H](C)CO)C(=O)Cc2cc(NC(=O)C3CCCCC3)ccc2O[C@H]1CN(C)CC1CC1 | 4 | -1
CNC[C@@H]1Oc2c(NS(=O)(=O)c3ccc(OC)cc3)cccc2C(=O)N([C@@H](C)CO)C[C@@H]1C | 2 | -1
C[C@H]1CN([C@@H](C)CO)C(=O)Cc2cc(NC(=O)Nc3ccc(C(F)(F)F)cc3)ccc2O[C@@H]1CN(C)C(=O)Nc1ccc(F)cc1 | -11 | 0
Cc1ccc(S(=O)(=O)Nc2ccc3c(c2)C(=O)N([C@@H](C)CO)C[C@@H](C)[C@H](CN(C)S(=O)(=O)c2cn(C)cn2)OCCCC[C@H](C)O3)cc1 | 0 | 8
CO[C@@H]1CN(C)C(=O)c2ccc(NC(C)=O)cc2OC[C@@H](C)N(C(=O)CN2CCOCC2)C[C@H]1C | -3 | -3
COc1ccccc1NC(=O)N(C)C[C@@H]1Oc2ncc(C#CC(C)C)cc2C(=O)N([C@@H](C)CO)C[C@H]1C | -1 | 8
O=C(C[C@H]1CC[C@H](NC(=O)C2CCOCC2)[C@H](CO)O1)NCc1ccccc1Cl | -1 | 0
C/C=C/c1cnc2c(c1)C(=O)N([C@H](C)CO)C[C@H](C)[C@H](CN(C)Cc1ccc3c(c1)OCO3)O2 | 8 | 4
CO[C@H]1CN(C)C(=O)c2cc(NS(=O)(=O)c3ccccc3Cl)ccc2OC[C@H](C)NC[C@H]1C | 5 | 10

Full records, quoted from the list. Screens in order: Vaccinia stage	Vaccinia stage Venus
`COc1ccc(S(=O)(=O)Nc2ccc3c(c2)C(=O)N([C@@H](C)CO)C[C@H](C)[C@H](CN(C)C(=O)NC2CCCCC2)OCCCC[C@@H](C)O3)cc1` in the list: 7	3
`CO[C@@H]1CN(C)C(=O)c2ccc(NC(C)=O)cc2OC[C@@H](C)N(C(=O)CN2CCOCC2)C[C@H]1C` in the list: -3	-3

Remaining list, next part
SMILES | Vaccinia stage | Vaccinia stage Venus
COc1ccc(S(=O)(=O)N[C@@H]2CC[C@H](CC(=O)N3CCN(c4ccccc4)CC3)O[C@H]2CO)cc1 | 2 | 4
CCCN1C[C@@H](C)[C@H](OC)CN(C)C(=O)c2cc(NC(=O)c3cccc(F)c3)ccc2OC[C@H]1C | -30 | -19
COc1ccc2c3c(n(C)c2c1)[C@@H](CO)N(Cc1ccncc1)CC31CCN(C(=O)Nc2cccc(F)c2)CC1 | -12 | -11
O=C(C1CCC1)N1CCCCN2[C@H](C1)[C@H](c1ccc(C#CC3(O)CCCC3)cc1)[C@@H]2CO | 21 | -8
C[C@@H]1CN([C@@H](C)CO)C(=O)c2cccc(NS(=O)(=O)c3cccs3)c2O[C@@H]1CN(C)C(=O)Nc1cccc2ccccc12 | 19 | 18
CO[C@H]1CN(C)C(=O)c2ccc(NC(=O)C3CCOCC3)cc2OC[C@H](C)N(C(=O)c2ccccc2)C[C@@H]1C | 5 | 1
C[C@@H]1CN([C@@H](C)CO)C(=O)c2cc(N(C)C)ccc2O[C@@H](C)CCCCO[C@H]1CN(C)S(C)(=O)=O | 12 | 21
CCCNC(=O)N1CC2(C1)[C@H](c1ccccc1)[C@@H](CO)N2CC1CCOCC1 | -6 | -2
O=C(Nc1ccc(Cl)cc1)N1C[C@@H]2[C@H](c3ccccc31)[C@H](CO)N2CC1CCCCC1 | ? | .
COc1cccc(-c2ccc3c(c2)[C@@H]2[C@@H](CCN2C(=O)NC2CCCC2)[C@@H](CO)N3C)c1 | -9 | -5
C[C@@H]1CN([C@H](C)CO)C(=O)c2cc(NC(=O)CCC(F)(F)F)ccc2O[C@@H](C)CCCCO[C@H]1CN(C)C(=O)CCC(F)(F)F | -9 | -11
C[C@H]1CN([C@@H](C)CO)C(=O)Cc2cc(NS(=O)(=O)c3ccccc3)ccc2O[C@H]1CN(C)Cc1ccc(-c2ccccc2)cc1 | -13 | -9
CN(C)C(=O)[C@H]1[C@H](CO)[C@H]2Cn3c(ccc(C4=CCCCC4)c3=O)[C@H]2N1Cc1ccc2c(c1)OCO2 | -10 | -3
C[C@H](CO)N1C[C@H](C)[C@@H](CN(C)C(=O)Nc2ccc(F)cc2)Oc2ccc(NC(=O)c3ccncc3)cc2CC1=O | 8 | 5
Cc1ccc(S(=O)(=O)Nc2ccc3c(c2)C(=O)N([C@@H](C)CO)C[C@H](C)[C@H](CN(C)S(=O)(=O)c2ccc(F)cc2)O3)cc1 | 1 | -4
COc1cccc(S(=O)(=O)Nc2ccc3c(c2)[C@@H]2C[C@@H](CC(=O)O)O[C@@H](CO)[C@@H]2O3)c1 | 12 | 4
Cc1ccc(S(=O)(=O)Nc2ccc3c(c2)CC(=O)N([C@@H](C)CO)C[C@H](C)[C@H](CN(C)C(=O)Nc2ccccc2)O3)cc1 | 6 | 0
CO[C@@H]1CN(C)C(=O)c2ccc(NC(=O)Nc3ccccc3F)cc2OC[C@@H](C)NC[C@@H]1C | -6 | -11
CO[C@@H]1CN(C)C(=O)c2cc(NC(=O)NC(C)C)ccc2OC[C@H](C)N(Cc2ccc(-c3ccccn3)cc2)C[C@@H]1C | -21 | -24
CCCN(C)C[C@H]1Oc2cc(-c3cccc(C#N)c3)ccc2S(=O)(=O)N([C@@H](C)CO)C[C@H]1C | 4 | -1
CCNC(=O)C[C@@H]1CC[C@@H]2[C@H](COc3ccc(NC(=O)Nc4ccccc4Cl)cc3C(=O)N2C)O1 | 3 | 17
O=C(c1ccccc1)N1C[C@@H]2[C@H](c3ccccc31)[C@@H](CO)N2S(=O)(=O)c1ccccc1 | 6 | 4
COc1ccc(CN(C)C[C@@H]2OCCCC[C@@H](C)Oc3ccc(NS(=O)(=O)c4c(C)noc4C)cc3C(=O)N([C@@H](C)CO)C[C@@H]2C)cc1 | ? | .
CN(C)C(=O)[C@H]1[C@H](CO)[C@H]2Cn3c(ccc(C4=CCCCC4)c3=O)[C@H]2N1C(=O)c1ccccc1F | 13 | 4
C[C@@H]1CN([C@H](C)CO)C(=O)c2cccc(NC(=O)NC3CCCCC3)c2O[C@@H]1CN(C)CC1CCCCC1 | 2 | 3

Quoted at random: 3 records from the list.
SMILES | Vaccinia stage | Vaccinia stage Venus
Cc1ccc(S(=O)(=O)Nc2ccc3c(c2)CC(=O)N([C@@H](C)CO)C[C@H](C)[C@H](CN(C)C(=O)Nc2ccccc2)O3)cc1 | 6 | 0
CN(C)C(=O)[C@H]1[C@H](CO)[C@H]2Cn3c(ccc(C4=CCCCC4)c3=O)[C@H]2N1C(=O)c1ccccc1F | 13 | 4
CCCNC(=O)N1CC2(C1)[C@H](c1ccccc1)[C@@H](CO)N2CC1CCOCC1 | -6 | -2

Part of the list above, field by field.
> O=C(Nc1ccc(Cl)cc1)N1C[C@@H]2[C@H](c3ccccc31)[C@H](CO)N2CC1CCCCC1
- Vaccinia stage: ?
- Vaccinia stage Venus: .

> COc1cccc(-c2ccc3c(c2)[C@@H]2[C@@H](CCN2C(=O)NC2CCCC2)[C@@H](CO)N3C)c1
- Vaccinia stage: -9
- Vaccinia stage Venus: -5

Screening data as filed in PubChem BioAssay.
